CXCR6 block – inhibitors of human CXCR6 receptor | O00574 | CHO-K1 PathHunter CXCR6 beta-arrestin, luminescence | inhibition, % at 20 µM | actives 0.36% (n = 360,000) | AID 602244; in the data active = inhibition above about 34%, passing the limit was not always enough;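 also: antagonist mode with CXCL16 agonist at 10 nM final; 0% = 10 nM CXCL16 with DMSO and 100% = unstimulated wells without agonist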
CCR6 antagonist – antagonists of human CCR6 receptor. P51684. CHO-K1 CCR6 PathHunter beta-arrestin, luminescence, CCL20-stimulated. inhibition, % at 20 µM. actives 0.49% (n = 340,000). AID 493098;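 active = compounds whose inhibition of the agonist-driven luminescence signal at 20 µM reaches about 50%, limit read from the data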;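 also: cells stimulated with CCL20 at 14 nM final; plate controls were DMSO with CCL20 for no effect and DMSO without agonist for full effect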
Target sequence (P51684 whole entry, looked up): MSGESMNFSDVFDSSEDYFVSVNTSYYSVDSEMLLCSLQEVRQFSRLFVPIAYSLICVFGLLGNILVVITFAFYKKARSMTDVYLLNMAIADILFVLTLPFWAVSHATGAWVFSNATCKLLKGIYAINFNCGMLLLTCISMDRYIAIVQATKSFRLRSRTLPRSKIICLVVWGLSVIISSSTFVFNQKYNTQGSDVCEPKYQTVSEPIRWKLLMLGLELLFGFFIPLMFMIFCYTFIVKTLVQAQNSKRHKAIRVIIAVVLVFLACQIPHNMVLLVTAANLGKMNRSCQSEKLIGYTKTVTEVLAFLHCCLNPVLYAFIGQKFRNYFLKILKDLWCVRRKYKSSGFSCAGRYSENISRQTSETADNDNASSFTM
UPR CHOP act – activators of apoptotic arm of unfolded protein response (CHOP); CHO-CHOP luciferase reporter, UPR activation, luminescence; percent of tunicamycin response over DMSO baseline; activation, % at 10 µM; actives 0.34% (n = 330,000);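 active = at 10 µM dose, activation of 40% or more, normalized to positive control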;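 also: 100% = tunicamycin at 10 µg/mL and 0% = DMSO alone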
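System: CHO-CHOP luciferase reporter cell line | Buffer or medium: F12 medium containing 10% fetal bovine serum | Doses: One dose, 10 µM in 0.5% DMSO | Times: 6 h compound exposure at 37 °C after overnight seeding | Signal: Luciferase luminescence | Read-out: % activation vs tunicamycin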
EBI2 antag – blocks human EBI2 receptor beta-arrestin signaling; inhibition, % at 5 µM; EBI2 beta-arrestin recruitment, luminescence, 7a,25-OHC stimulated; actives 0.81% (n = 360,000); in the data active = inhibition above about 38%;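 also: enzyme fragment complementation signal reports receptor beta-arrestin coupling in cells; 0% = agonist plus DMSO wells and 100% = wells without agonist; some results beyond the cut were filed as inactive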
XBP1 UPR activ – adaptive UPR (XBP1) activation | CHO-XBP1 luciferase reporter, IRE1-XBP1 UPR activation, luminescence; percent of tunicamycin response, DMSO as zero | activation, % at 20 µM | actives 0.33% (n = 330,000);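 active = versus positive control, 20 µM dose yields 30% or more activation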;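 also: 100% = tunicamycin at 10 µg/mL and 0% = DMSO only wells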
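assay system = CHO-XBP1 luciferase reporter cells | amount = 1000 cells/well | buffer or medium = F12 plus 10% FBS | compound dosing = single point, 20 µM final compound, 1% DMSO | incubation = 16-18 h cell attachment at 37 °C, then 6 h compound exposure | detection = Steady-Glo luminescence read | controls = tunicamycin 10 µg/mL and vehicle-only wells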
An asterisk follows results filed as active; nt = no result given; & = joins results of further samples. Not all compounds are listed, so the mix of outcomes need not match the whole.

SMILES | CXCR6 block | CCR6 antagonist | UPR CHOP act | EBI2 antag | XBP1 UPR activ
Cc1nnc(SCC2=C(C(=O)O)N3C(=O)[C@@H](NC(=O)Cn4cnnn4)[C@H]3SC2)s1 | -17&-9 | -1&-20 | -0.5&-0.6 | -13&-2 | -5&2
Cc1nc(=O)c(-c2ccccc2)c(C)n1-c1ccc(O)c(C(=O)O)c1 | -3 | 11 | -2.7 | 0 | -5
O=C(CSc1ncnc2ccccc12)NCc1ccc2c(c1)OCO2 | -4 | 16 | -0.4 | 4 | 0
CN1CCN(C2=Nc3cc(Cl)ccc3Nc3ccccc32)CC1 | -2 | 11 | 0.2 | -5 | -5
O=C(O)COCCN1CCN(C(c2ccccc2)c2ccc(Cl)cc2)CC1 (configuration not stated) | 0 | 0 | 0.1 | -12 | -2
Nc1nc(=S)c2[nH]cnc2[nH]1 | -2 | 2 | -0.5 | -5 | -5
CCOC(=O)NC1CCc2cc(OC)c(OC)c(OC)c2-c2ccc(SC)c(=O)cc21 (configuration not stated) | 1 | -1 | nt | -10 | nt
N[C@@H](Cc1cc(I)c(Oc2ccc(O)c(I)c2)c(I)c1)C(=O)O | 6&-7 | 30&30 | 0.6&0.7 | 40&10 | -8&-2
COc1ccc(/C(N)=N/OC(=O)CSc2ccccc2)cc1 | -2 | -1 | 6.7 | -12 | -2
O=C1NC[C@H](c2ccccc2)OC(=O)[C@H](Cc2ccc(F)cc2)CC/C=C/C[C@@H]1CC(=O)N(CCO)Cc1ccccc1 | 30 | 27 | 3.8 | 5 | 11
CC(=O)Oc1ccc(-c2cc3ccc(OC(C)=O)cc3oc2=O)cc1 | -5 | -4 | 5.3 | -13 | 10
Cc1nc2ccccc2n1S(=O)(=O)c1ccc(F)cc1 | -16 | 9 | -3.2 | -2 | -1
O=C(CCCN1CCC(O)(c2ccc(Cl)cc2)CC1)c1ccc(F)cc1 | 9 | 30 | -0.3&1.1 | -8 | -8&-7
COc1cc(S(=O)(=O)n2c(C)nc3ccccc32)ccc1F | 3 | -5 | -0.2 | -5 | -3
O=C1NC[C@@H](c2ccccc2)OC(=O)[C@@H](Cc2ccc(F)cc2)CC/C=C/C[C@H]1CC(=O)N(CCO)Cc1ccccc1 | 25 | 26 | 1.5 | 17 | 2
O=C1NC[C@@H](c2ccccc2)OC(=O)[C@@H](Cc2ccc(F)cc2)CC/C=C/C[C@@H]1CC(=O)N(CCO)Cc1ccccc1 | 56* | 50 | 3.9 | 21 | -2
COc1cc2c(cc1OC)C1C(=O)c3cc(OS(C)(=O)=O)c(OC)cc3C1N(C)C2=O (configuration not stated) | -2 | 9 | nt | -6 | nt
COc1cccc2c1C(=O)c1c(O)c3c(c(O)c1C2=O)CC(O)(C(=O)CO)CC3OC1CC(N(C)C)C(O)C(C)O1 (configuration not stated) | 14 | 18 | nt | -24 | nt
O=C(O)Cn1nc(C(F)(F)F)c2c1CCCCC2 | -8 | -10 | -0.9 | -2 | -1
CCCCCCCCCCCCCCCC[N+](C)(C)CC | 20 | 34 | 7.6 | -5 | -1
O=C1NC[C@@H](c2ccccc2)OC(=O)[C@H](Cc2ccc(F)cc2)CC/C=C/C[C@H]1CC(=O)N(CCO)Cc1ccccc1 | 34 | 26 | 3.1 | 9 | 0

3 compounds already listed, sorted by count of non-hydrogen atoms, largest number first:
SMILES | CXCR6 block | CCR6 antagonist | UPR CHOP act | EBI2 antag | XBP1 UPR activ
COc1cccc2c1C(=O)c1c(O)c3c(c(O)c1C2=O)CC(O)(C(=O)CO)CC3OC1CC(N(C)C)C(O)C(C)O1 (configuration not stated) | 14 | 18 | nt | -24 | nt
Cc1nnc(SCC2=C(C(=O)O)N3C(=O)[C@@H](NC(=O)Cn4cnnn4)[C@H]3SC2)s1 | -17&-9 | -1&-20 | -0.5&-0.6 | -13&-2 | -5&2
CC(=O)Oc1ccc(-c2cc3ccc(OC(C)=O)cc3oc2=O)cc1 | -5 | -4 | 5.3 | -13 | 10

An excerpt of these results, with values under each structure:
Order of values: CXCR6 block | CCR6 antagonist | UPR CHOP act | EBI2 antag | XBP1 UPR activ
COc1ccc(/C(N)=N/OC(=O)CSc2ccccc2)cc1
  -2 | -1 | 6.7 | -12 | -2
O=C1NC[C@H](c2ccccc2)OC(=O)[C@H](Cc2ccc(F)cc2)CC/C=C/C[C@@H]1CC(=O)N(CCO)Cc1ccccc1
  30 | 27 | 3.8 | 5 | 11
CC(=O)Oc1ccc(-c2cc3ccc(OC(C)=O)cc3oc2=O)cc1
  -5 | -4 | 5.3 | -13 | 10
Cc1nc2ccccc2n1S(=O)(=O)c1ccc(F)cc1
  -16 | 9 | -3.2 | -2 | -1

Compound activity (PubChem)
